Biofilm kill mix = mixture kills Candida albicans biofilm cells; C. albicans biofilm persisters + clotrimazole, fluorescence viability; primary screen in compound mixtures of four per well; inhibition, % at 7.6 µM; 120,000 compounds, 0.02% hits; AID 1242;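 active = inhibition above 30.3% in the primary screen of four-compound pools, then above 30% when the compound was retested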;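 also: compounds exposed to preformed 24 h biofilms for 48 h; the number belongs to the whole pool; some results filed as inactive read as strong as hits; inactives centre near 12; 0% = biofilm with clotrimazole alone and 100% = kill control; retested singly at about 60 µM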
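Assay system: C. albicans biofilms / Medium: RPMI/MOPS medium, pH 7.0 / Schedule: biofilm formation 24 h, compound exposure 48 h, 37 °C / Measured by: Alamar Blue fluorescence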
Starred values were filed as active, the others as inactive.

The first six records, ahead of the listing:
mol | Biofilm kill mix
C=CCOc1cccc(C2C(C(=O)c3cccs3)=C(O)C(=O)N2Cc2cccnc2)c1 (stereo unspecified) | 15
O=C(N/C(=C\c1ccc(Cl)cc1)C(=O)N1CCOCC1)c1ccc([N+](=O)[O-])cc1 | -11
Cc1ccc2c(c1)nnc1nnc(SCC(=O)O)n12 | 25
COc1cc(/C=N/N2C(=O)C3C4C=CC(CC4)C3C2=O)ccc1O (stereo unspecified) | 10
CCOC(=O)c1cn2nc(Oc3ccc(C#N)cc3)ccc2n1 | 12
COC(=O)c1cc(-c2ccc(C)o2)nc2ccccc12 | -3

The list itself, previewed entries included:
mol | Biofilm kill mix
C=CCOc1cccc(C2C(C(=O)c3cccs3)=C(O)C(=O)N2Cc2cccnc2)c1 (stereo unspecified) | 15
O=C(N/C(=C\c1ccc(Cl)cc1)C(=O)N1CCOCC1)c1ccc([N+](=O)[O-])cc1 | -11
Cc1ccc2c(c1)nnc1nnc(SCC(=O)O)n12 | 25
COc1cc(/C=N/N2C(=O)C3C4C=CC(CC4)C3C2=O)ccc1O (stereo unspecified) | 10
CCOC(=O)c1cn2nc(Oc3ccc(C#N)cc3)ccc2n1 | 12
COC(=O)c1cc(-c2ccc(C)o2)nc2ccccc12 | -3
CCOC(=O)c1cc(NC(=O)Nc2ccccn2)c(C)nc1C | 26
COC(=O)c1c(NC(NC(=O)C(C)C)C(Cl)(Cl)Cl)sc2c1CCCC2 (stereo unspecified) | 16
N/C(=N\NC(=O)Nc1ccc(Cl)cc1)c1ccccn1 | 7
CC(OC(=O)C1=NNC(=O)CC1)C(=O)Nc1ncc(Cl)cc1Cl (stereo unspecified) | 11
Cc1ccc(C(=O)OCC(=O)Nc2c(Cl)cc(S(N)(=O)=O)cc2Cl)o1 | 24
CN(C)S(=O)(=O)c1cccc(NC(=S)N/N=C/c2ccc(O)c(O)c2O)c1 | 18
CC(C)CC(C(=O)Nc1ccccc1)N1C(=O)C2C3C=CC(C3)C2C1=O (stereo unspecified) | 12
O=C(CCC1CCCN(C(=O)c2cccs2)C1)N1CCN(c2ccccn2)CC1 (stereo unspecified) | 16
CN(C)/C=C(/C(=O)c1ccc(Cl)c(Cl)c1)S(C)(=O)=O | 18
CCCn1c(=N)n(CC(=O)c2ccc([N+](=O)[O-])cc2)c2ccccc21 | 6
COc1ccc(CCN2C(=O)CC(Cc3ccc(C)cc3)C2=O)cc1OC (stereo unspecified) | 19
O=c1cc(CN2CCN(c3cccc(C(F)(F)F)c3)CC2)nc2sccn12 | 17
COc1cc([N+](=O)[O-])ccc1NC(=O)Cc1ccc(F)cc1 | 15
COc1ccc(Nc2oc(COc3ccc(C)cc3)nc2C#N)cc1 | 1
CCCC(=O)NC(=S)NNC(=O)c1ccc([N+](=O)[O-])cc1 | 23
Cc1nnsc1C(=O)NNc1c(Cl)cccc1Cl | 11
COc1ccc(CC2(C)OC(c3ccc(Cl)cc3)=NN2C(C)=O)cc1 (stereo unspecified) | 8
CCn1nc(C)c(CNC(=O)CC2C(=O)NCCN2Cc2ccc(C)o2)c1C (stereo unspecified) | 19
COc1ccccc1N(C(=O)c1ccncc1)c1nc(-c2ccc([N+](=O)[O-])cc2)cs1 | 7
O=C(O)c1ccc(NC(=S)NC2CCCCC2)cc1 | 10
CCCN1C2CCCC1CC(NC(=S)Nc1cccc(C)c1)C2 (stereo unspecified) | 15
O=C1CCCN1CCCNC(=S)Nc1ccc(Nc2ccccc2)cc1 | 6
C/C(CC(=O)Nc1cccc(C(F)(F)F)c1)=N/NC(=O)C(=O)NCCO | 17
CCn1c(SCC(=O)Nc2ccc(C)cc2)nc(O)cc1=O | 24
COc1ccc(Nc2nc3ccccc3nc2NS(=O)(=O)c2cccs2)c(OC)c1 | 11
CC(C)(C)c1ccc(/C=N/N2CCN(c3ccccn3)CC2)cc1 | 18
Cc1ccc(S(=O)(=O)N(CC(=O)N=Nc2c(O)[nH]c3ccccc23)c2cccc(C)c2)cc1 | 27
COc1ccccc1CN1C(=O)c2cccc3cccc(c23)C1=O | 23
CCC1(c2ccccc2)C(=O)NCNC1=O | -5
Cc1nn(CCCC(=O)Nc2cccnc2Cl)c(C)c1[N+](=O)[O-] | 2

An excerpt from above in order of count of non-hydrogen atoms, descending:
mol | Biofilm kill mix
COc1ccccc1N(C(=O)c1ccncc1)c1nc(-c2ccc([N+](=O)[O-])cc2)cs1 | 7
COc1ccccc1CN1C(=O)c2cccc3cccc(c23)C1=O | 23
CCCN1C2CCCC1CC(NC(=S)Nc1cccc(C)c1)C2 (stereo unspecified) | 15

Further results follow:
mol | Biofilm kill mix
Oc1ccc(Br)cc1/C=N/N1CCCCC1 | -2
CC(C)(C)NC(=O)NC(=O)COC(=O)c1ccc(OC(F)F)cc1 | 14
Cc1ccc(CN(Cc2cc3cccc(C)c3[nH]c2=O)C(=S)NCCCN(C)C)cc1 | 27
Cc1csc2c(N3CCN(C(=S)Nc4ccc(C(F)(F)F)cc4)CC3)ncnc12 | 14
CC1(C)c2ccccc2-c2nc3ccccc3cc2C1O (stereo unspecified) | 26
COC(=O)C1=C(O)/C(=C\c2cc(C)n(-c3ccc(F)cc3)c2C)N=C1C | 8
O=C(CN1CCc2ccccc2C1)Nc1cc(S(=O)(=O)N2CCOCC2)ccc1N1CCOCC1 | 20
S=C(Nc1ccc2nc(-c3ccccn3)c(-c3ccccn3)nc2c1)N1CCCCC1 | 2
O=c1oc2cc(OCc3c(F)c(F)c(F)c(F)c3F)ccc2cc1-c1ccccn1 | 18
COc1ccc(C(=O)N2CCN(S(=O)(=O)c3ccc(C)cc3)CC2)cc1S(=O)(=O)N1CCOCC1 | 11
COc1ccc(CNC(N)=O)cc1 | 9
Cc1ccc(S(=O)(=O)NC(=O)c2cc(C)n(CC(c3ccccc3)N(C)C)c2C)cc1 (stereo unspecified) | 8

Four compounds drawn at random from those above:
mol | Biofilm kill mix
Cc1ccc(S(=O)(=O)NC(=O)c2cc(C)n(CC(c3ccccc3)N(C)C)c2C)cc1 (stereo unspecified) | 8
S=C(Nc1ccc2nc(-c3ccccn3)c(-c3ccccn3)nc2c1)N1CCCCC1 | 2
O=c1oc2cc(OCc3c(F)c(F)c(F)c(F)c3F)ccc2cc1-c1ccccn1 | 18
COc1ccc(CNC(N)=O)cc1 | 9

More entries:
mol | Biofilm kill mix
COc1cc(C(=O)NCCSc2ccc(Br)cc2)cc(OC)c1OC | 14
COC(=O)c1ccc(NC(=O)NCCCl)cc1 | 31
O=C(CN1C(=O)C2CC=CCC2C1=O)Nc1ccc(S(=O)(=O)N2CCOCC2)cc1 (stereo unspecified) | 5
CCOc1ccc(OCCSc2nc(-c3ccccc3)cc(=O)[nH]2)cc1 | 10
CCOC(=O)/C=C/C(=O)Nc1ccccc1-c1ccccc1NC(=O)/C=C/C(=O)OCC | 11
CCNC(=S)N1CCN(c2cccc(C(F)(F)F)c2)CC1 | 15
O=C(COc1ccc(Cl)cc1)NCC(=O)N/N=C/c1cccs1 | 3
C=CCNC(=S)N(CC=C)C1CCS(=O)(=O)C1 (stereo unspecified) | 8
CC(=C/c1ccco1)/C=N/NC(=O)c1nnn(-c2nonc2N)c1CN(C)C | 13
CCOC(=O)c1sc(NC(=O)CNC(=O)Cn2cnc3sc(C)c(C)c3c2=O)nc1C | 8
Cc1cccc(C(=O)NNS(=O)(=O)c2ccccc2[N+](=O)[O-])c1 | 6
O=C(OCc1nnc(-c2ccccc2)o1)c1cc(F)c(F)cc1Cl | 23
CC(C)Nc1nc2c(c(=O)n(C)c(=O)n2C)n1C | 9
COCCCN1CCc2[nH]c(=S)[nH]c(=O)c2C1 | -4
COc1ccc(-n2c(O)c(C=Nc3ccccc3)c3ccccc3c2=O)cc1OC | 29
Cc1cc(Cl)ccc1C(=O)C1CCCN(C(=O)c2snnc2C)C1 (stereo unspecified) | 9
O=C(O)CC/C(=N\NC(=O)c1ccccc1Br)c1ccccc1 | 17
O=C(NCc1ccccc1)NC12CC3CC(CC(C3)C1)C2 | 12
Cc1cc(NC(=O)CN2C(=O)c3ccccc3C2=O)no1 | 14
O=C(COc1cc(Cl)c(Cl)cc1Cl)NCCc1ccccn1 | 10
CS(=O)(=O)Nc1ccc(C(=O)NCCSCc2ccccc2)cc1 | 15
O=C(N[C@@H](Cc1c[nH]c2ccccc12)C(=O)NC1CC1)c1ccccc1Cl | 7
COc1ccc2cc(C3CC(c4ccco4)=NN3C(=O)CCC(=O)O)c(Cl)nc2c1 (stereo unspecified) | 20
CC(C)c1ccccc1NC(=S)NCc1ccccc1F | 4

Copied from the list:
Biofilm kill mix result of `COc1ccc2cc(C3CC(c4ccco4)=NN3C(=O)CCC(=O)O)c(Cl)nc2c1` (stereo unspecified) = 20
Biofilm kill mix result of `O=C(N[C@@H](Cc1c[nH]c2ccccc12)C(=O)NC1CC1)c1ccccc1Cl` = 7

More compounds.
mol | Biofilm kill mix
COc1cccc(C(=O)C2CCCN(CC3=Cc4cc(OC)ccc4OC3)C2)c1 (stereo unspecified) | 12
CNC[C@H](O)c1cccc(O)c1 | 13
O=C(/C=C/c1ccc(Br)cc1)NC(=S)Nc1ccc(S(=O)(=O)Nc2nccs2)cc1 | 5
O=C(OCC(=O)N1CCc2ccccc2C1)c1cccs1 | 11
C=COCCNC(=S)Nc1ccccc1 | 4
O=S(=O)(/C=C/c1ccccc1)N1CCN(Cc2ccc3c(c2)OCO3)CC1 | 12
CCOC(=O)c1cc(C#N)c(N2CCN(C(=O)c3cccc(C(F)(F)F)c3)CC2)nc1C(F)(F)F | 18
CCc1ccc(C2=NN(CCC(=O)NCc3cccs3)C(=O)CC2)cc1 | 16
Cc1ccc2nnnc(-c3ccccc3)c2c1 | 18
CC1(C)Cc2ccccc2C(=NCC(=O)O)N1 | 11
CC(C)(C)CN1CCNC(=O)C1CC(=O)N1CCC(C(=O)N2CCOCC2)CC1 (stereo unspecified) | 12
Cc1cc(Cl)n2c(nc3cc(F)c(F)cc32)c1C#N | 19

More entries.
SMILES,Biofilm kill mix
C=CCn1c(-c2cnn(-c3ccccc3)c2N)n[nH]c1=S,22
COCCn1cnc2c(c1=O)c1nc3ccccc3nc1n2/N=C/c1ccco1,20
COc1ccc(NS(=O)(=O)c2cc(NC(=O)C3CCCO3)ccc2N2CCCCC2)cc1 (stereo unspecified),7
COc1cc(C(=O)NCCCNc2nc3c(C)cc(C)cc3cc2C#N)cc(OC)c1OC,-2
O=C(Nc1ccc(Cl)cc1)c1ccc2nsnc2c1,8
Cc1ccc(C(=O)Nc2ccc(CN3CCCCC3)cc2)c(C)c1,1
Cc1cc(/C=C2/NC(=O)N(Cc3ccccc3F)C2=O)c(C)n1C,13
CCCCCCCCCCCCN1C(=O)CSC1c1cccnc1 (stereo unspecified),17
COC(=O)CSc1ncnc2c(C)csc12,20
O=C(O)C1=C[C@@H](c2csc3ccccc23)C[C@@H](OCc2ccc(CO)cc2)O1,13
Cc1[nH]n(C2=NCCS2)c(=O)c1N=Nc1ccccc1,20
CCOc1ccc(NCc2nnc(SCc3ccc(Cl)cc3)n2-c2ccccc2)cc1,16
Cc1[nH]n(-c2ccccc2)c(=O)c1C=Nc1ccc(S(=O)(=O)Nc2nccs2)cc1,19
O=C(c1ccc(Oc2ccc(C(F)(F)F)cc2[N+](=O)[O-])cc1)N1CCOCC1,4
CCN(CC)CCNC(=O)c1cc(Sc2nnc(C)s2)nc2ccccc12,8
COCCNC(=O)CSc1nccn1Cc1ccc2c(c1)OCO2,0
CNC(=O)NC(=O)Cn1cnc2sc(-c3ccccc3)cc2c1=O,10
COCC(=O)Nc1cc(C(=O)NCCc2ccccc2)ccc1Cl,-4
O=C(CCCCCNC(=S)Nc1ccccc1)C[N+](=O)[O-],4
CC(=O)c1c(N2CCOCC2)[nH]c(-c2ccccc2)nc1=S,3
O=C(CCSc1nnc(-c2ccco2)o1)N1CCOCC1,6
COC(=O)c1ccccc1NC(=S)NC(=O)c1ccc(C)cc1,3
COc1ccc(OC)c(CN2CCC(C(=O)N3CCN(c4ccccc4F)CC3)CC2)c1,18
CC(C)CCNC(=O)C(c1ccncc1)N(CC1CCCO1)C(=O)Cn1nnc(-c2ccc(F)cc2)n1 (stereo unspecified),0
O=C(CSc1ccccn1)Nc1ccc(Cl)c([N+](=O)[O-])c1,11
O=C1S/C(=C/c2ccccc2)C(=O)N1CC(O)Cn1c2ccccc2c2ccccc21 (stereo unspecified),25
COc1ccc2sc(C)[n+](C)c2c1,18
CN(C)NC(=S)Nc1cccc(C(F)(F)F)c1,10
CCOc1ccc(NC(=O)NNC(=O)C2CCC(C(C)(C)C)CC2)cc1 (stereo unspecified),14
CC(C)CC(NC(=O)CC12CC3CC(CC(C3)C1)C2)C(=O)NC1=NCCS1 (stereo unspecified),7
O=S1(=O)CCC(NC(=S)SCCOc2ccccc2)C1 (stereo unspecified),11
Cc1cccc(N2C(=O)SC(SC(=Nc3ccccc3)Nc3ccccc3)C2=O)c1 (stereo unspecified),-3
Nc1cc(=O)[nH]c(SCC(=O)Nc2ccc(S(=O)(=O)N3CCCCC3)cc2)n1,22
O=C(NCc1ccc(/C=c2\sc3n(c2=O)CCN=3)o1)C(=O)Nc1ccccc1,8
CC(C)(C)CN1CCNC(=O)C1CC(=O)NCc1cccc(-n2cccn2)c1 (stereo unspecified),5
Cc1ccc(C(=O)Nc2ccc3cn[nH]c3c2)cc1S(=O)(=O)N1CCOCC1,15
COc1cccc(CC2(CO)CCN(Cc3cnc(-c4cccc(C)c4)nc3)CC2)c1,24
Cc1ccccc1OCCOc1ccccc1C=C(C#N)C#N,19
Cc1ccc(O)c(C2=Nc3ccccc3N=C(c3cccc([N+](=O)[O-])c3)C2)c1,15
Cc1cc2nc(-c3cc(N4CCOCC4)ccc3[N+](=O)[O-])ccn2n1,14
COc1ccc(CCNC(=O)CN(c2ccccc2)S(C)(=O)=O)cc1,9
Cn1cccc1C(=O)C(=O)Nc1ccc(F)c(F)c1,2
CN(C)/C=C/C(=O)c1cnc(-c2ccccn2)s1,3
CCC(CC)C(=O)NCCCCc1ccccc1,10
Cn1c(SCC(=O)NNC(=S)Nc2ccccc2)nnc1-c1ccncc1,12
CCCC(NC(=O)CCl)c1ccccc1 (stereo unspecified),11
CCN(CC)c1ccc(NC(=S)NC(=O)c2cccs2)cc1,16

Only part of the results is shown, so the mix of outcomes need not match the whole.
